# Bioassay records (PubChem)
# KCNQ2 enhance: potentiators of rat KCNQ2 potassium channel; AID 2239; O88943; 310,000 compounds, 0.54% hits; B-score at 10 µM; CHO-K1 KCNQ2, FluxOR thallium flux fluorescence; stronger effect = higher value;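 active = fluorescence ratio B-score at least 3 SD of library B-scores, with initial fluorescence B-score within 3 SD, cut at about 5.3 in these data; same plate scores as AID 2156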;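 note: B-score of peak minus minimum over baseline fluorescence ratio after K+ and Tl+ stimulus; positive B-score means potentiation of KCNQ2 with more thallium influx and brighter signal; only the inactives scoring about 0 or higher are listed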
# Target sequence (O88943 whole entry, looked up): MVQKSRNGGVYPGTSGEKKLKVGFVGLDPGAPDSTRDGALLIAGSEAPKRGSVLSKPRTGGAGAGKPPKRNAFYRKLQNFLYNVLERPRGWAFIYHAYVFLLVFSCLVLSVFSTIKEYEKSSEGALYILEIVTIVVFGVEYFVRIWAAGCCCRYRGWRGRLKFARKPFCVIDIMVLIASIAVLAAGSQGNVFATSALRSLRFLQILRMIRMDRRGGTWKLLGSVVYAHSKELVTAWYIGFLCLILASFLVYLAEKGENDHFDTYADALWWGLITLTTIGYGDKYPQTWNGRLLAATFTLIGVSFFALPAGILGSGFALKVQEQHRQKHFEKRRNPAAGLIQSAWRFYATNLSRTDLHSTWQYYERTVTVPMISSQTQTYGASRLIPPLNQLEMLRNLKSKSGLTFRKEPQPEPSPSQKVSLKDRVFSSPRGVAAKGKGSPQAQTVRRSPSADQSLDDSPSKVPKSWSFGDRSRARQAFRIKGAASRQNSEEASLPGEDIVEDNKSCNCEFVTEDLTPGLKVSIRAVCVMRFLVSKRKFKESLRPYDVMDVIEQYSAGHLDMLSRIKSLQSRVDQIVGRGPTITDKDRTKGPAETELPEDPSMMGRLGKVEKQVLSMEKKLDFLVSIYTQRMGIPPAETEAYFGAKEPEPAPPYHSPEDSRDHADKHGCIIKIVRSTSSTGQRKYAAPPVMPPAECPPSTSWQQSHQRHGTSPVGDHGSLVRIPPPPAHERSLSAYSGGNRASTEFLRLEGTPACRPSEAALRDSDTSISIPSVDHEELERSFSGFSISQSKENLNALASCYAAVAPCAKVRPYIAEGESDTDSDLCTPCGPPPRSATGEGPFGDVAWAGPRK
# KCNQ2 enhance baseline: also measured in KCNQ2 enhance; calls as there; B-score; compound at 10 µM; measured here: initial fluorescence intensity artifact check;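 brightness before thallium and not channel activity; 0 = typical well and far values either way flag optical interference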
# Starred values were filed as active, the others as inactive; & = joins results of further samples. This is a subset; count on the stated rates, not on these rows.
SMILES,KCNQ2 enhance,KCNQ2 enhance baseline
C=Cn1ccnc1P(=S)(c1ccccc1)c1nccn1C=C,0.72,0.21
CC(C)(C)C(=O)c1cn(CC(=O)NCc2ccco2)c2ccccc12,0.27,1.7
CN1CCCC(C(=O)c2ccccc2)C1 (centres undefined),0.59,-1.04
N#CCCn1cc(C=C2C(=O)NC(=O)NC2=O)c(-c2ccccc2)n1,0.04,0.49
CCOc1cccc(N2C(=O)CC(=O)NC2=O)c1,0.53,0.04
COc1ccc(C2SCC(=O)Nc3c2c(=O)[nH]n3C2CCCCCC2)cc1OC (centres undefined),0.29,3.12
FC(F)(F)c1ccc(CN2CCNCC2)cc1,0.9,-1.91
CCN(CC)CCN=Cc1c(O)n(Cc2ccccc2)c(=O)[nH]c1=O,0.42&0.34,-2.01&-0.81
CCCCCn1c(=O)c(C(=O)NCc2ccc(Cl)cc2)c(O)c2ccccc21,2.01,-0.67
CN1Cc2c(c(C#N)c(N)n(C)c2=S)CC1(C)C,0.01,3.57
CN1C2C=C(N(C(=O)c3ccc(Cl)cc3)c3ccccc3)CC1CC2 (centres undefined),2.12,0.38
CCNc1nc(Cl)nc(NC(C)C)n1,1.39,-0.85
CC(C)CNc1c2c(nc3ccccc13)CCC2,3.15,-0.39
CCCCNC(=O)Nc1ccc(C(O)(C(=O)OC)C(F)(F)F)cc1 (centres undefined),1.33,-0.11
CN(C)CCNC(=O)c1cccn(Cc2cc(C(F)(F)F)cc(C(F)(F)F)c2)c1=O,1.36,0.02
COc1cc2c(cc1OC)C(C(=O)NC(C)C)C1CCCCN1C2=O (centres undefined),0.23,0.11
COc1ccc(NC(=O)N2C[C@@H]3C[C@@H](C2)c2cccc(=O)n2C3)cc1,0.93,-0.9
CC1=C(C(=O)O)N2C(=O)[C@@H](NC(=O)CCCC(=O)O)[C@H]2SC1,0.83,-0.22
CCN(CC)P(=O)(NC(=O)C(Cl)(Cl)Cl)N(CC)CC.[Cl-].[Cl-].[Cl-].[Nd+3],0.25,-0.38
Cc1onc(-c2ccccc2)c1C(=O)N1CCC2(CC1)OCCO2,1.08,-0.04
CCOC(=O)C1C(=O)N(C)C2(C)CC1c1ccccc1O2 (centres undefined),0.79,-1.07
Cc1c(C(=O)N2CCC3(CC2)OCCO3)sc2ncnc(N(C)c3ccccc3)c12,0.44,-1.63
Cc1ccc2c(c1)N(C(=O)CCC(=O)N1CCC3(CC1)OCCO3)CC(C)O2 (centres undefined),0.87,1.46
O=C1CN=C(c2cccs2)c2c(sc3c2CCCC3)N1,1.53,-0.65
COc1ccc(-n2c(O)c(/C(C)=N/N3CCCCCC3)c(=O)[nH]c2=O)cc1,1.1,0.54

# Given with values under each structure: 22 of the compounds above
# Sequence of screens – KCNQ2 enhance	KCNQ2 enhance baseline
- C=Cn1ccnc1P(=S)(c1ccccc1)c1nccn1C=C
 : 0.72	0.21
- CC(C)(C)C(=O)c1cn(CC(=O)NCc2ccco2)c2ccccc12
 : 0.27	1.7
- CN1CCCC(C(=O)c2ccccc2)C1 (centres undefined)
 : 0.59	-1.04
- N#CCCn1cc(C=C2C(=O)NC(=O)NC2=O)c(-c2ccccc2)n1
 : 0.04	0.49
- CCOc1cccc(N2C(=O)CC(=O)NC2=O)c1
 : 0.53	0.04
- COc1ccc(C2SCC(=O)Nc3c2c(=O)[nH]n3C2CCCCCC2)cc1OC (centres undefined)
 : 0.29	3.12
- FC(F)(F)c1ccc(CN2CCNCC2)cc1
 : 0.9	-1.91
- CCN(CC)CCN=Cc1c(O)n(Cc2ccccc2)c(=O)[nH]c1=O
 : 0.42&0.34	-2.01&-0.81
- CCCCCn1c(=O)c(C(=O)NCc2ccc(Cl)cc2)c(O)c2ccccc21
 : 2.01	-0.67
- CN1Cc2c(c(C#N)c(N)n(C)c2=S)CC1(C)C
 : 0.01	3.57
- CN1C2C=C(N(C(=O)c3ccc(Cl)cc3)c3ccccc3)CC1CC2 (centres undefined)
 : 2.12	0.38
- CCNc1nc(Cl)nc(NC(C)C)n1
 : 1.39	-0.85
- CC(C)CNc1c2c(nc3ccccc13)CCC2
 : 3.15	-0.39
- CCCCNC(=O)Nc1ccc(C(O)(C(=O)OC)C(F)(F)F)cc1 (centres undefined)
 : 1.33	-0.11
- CN(C)CCNC(=O)c1cccn(Cc2cc(C(F)(F)F)cc(C(F)(F)F)c2)c1=O
 : 1.36	0.02
- COc1cc2c(cc1OC)C(C(=O)NC(C)C)C1CCCCN1C2=O (centres undefined)
 : 0.23	0.11
- COc1ccc(NC(=O)N2C[C@@H]3C[C@@H](C2)c2cccc(=O)n2C3)cc1
 : 0.93	-0.9
- CC1=C(C(=O)O)N2C(=O)[C@@H](NC(=O)CCCC(=O)O)[C@H]2SC1
 : 0.83	-0.22
- CCN(CC)P(=O)(NC(=O)C(Cl)(Cl)Cl)N(CC)CC.[Cl-].[Cl-].[Cl-].[Nd+3]
 : 0.25	-0.38
- Cc1onc(-c2ccccc2)c1C(=O)N1CCC2(CC1)OCCO2
 : 1.08	-0.04
- CCOC(=O)C1C(=O)N(C)C2(C)CC1c1ccccc1O2 (centres undefined)
 : 0.79	-1.07
- Cc1c(C(=O)N2CCC3(CC2)OCCO3)sc2ncnc(N(C)c3ccccc3)c12
 : 0.44	-1.63

# Whole records as entered above.
# `CN(C)CCNC(=O)c1cccn(Cc2cc(C(F)(F)F)cc(C(F)(F)F)c2)c1=O` in the list: KCNQ2 enhance = 1.36; KCNQ2 enhance baseline = 0.02
# `Cc1onc(-c2ccccc2)c1C(=O)N1CCC2(CC1)OCCO2` in the list: KCNQ2 enhance = 1.08; KCNQ2 enhance baseline = -0.04

# Further records follow.
SMILES,KCNQ2 enhance,KCNQ2 enhance baseline
CC(Cc1ccc(O)cc1)NCC(O)c1cc(O)cc(O)c1 (centres undefined),1.41,-0.36
COc1c2c(cc3c1OCO3)CC[N+](C)=C2,0.64,-0.7
O=[N+]([O-])c1ccc(N2CCCC2)c2ncccc12,0.41,0.22
Cc1ccsc1C(=O)C1CCCN(Cc2cnn(C)c2)C1 (centres undefined),0.01,-0.72
CCC(=NCc1ccc(F)cc1)c1c(O)n(C)c(=O)n(C)c1=O,1.09,-0.02
CC(C)(C)NC(=O)C1CC2CCCCC2CN1 (centres undefined),2.39,-0.32
COc1ccc(CCC(C)NCCc2ccccc2)cc1 (centres undefined),0.05,0.04
CC/C(=N\Nc1ccccc1)c1c(O)n(-c2ccc(OC)cc2)c(=O)[nH]c1=O,0.31,-2.93
CC(C)N1C(=O)NC(=O)C2(Cc3cc([N+](=O)[O-])ccc3N(C)C2c2ccccc2)C1=O (centres undefined),1.18,-1.78
COC(=O)C1=C(c2cccc(OC)c2OC)C[C@@H]2CC[C@H]1N2C(=O)N1CCC(O)CC1,0.42,1.3
CCOC(=O)c1ccccc1C(=O)OCC,0.49,0.45
Cc1cc(OCC(=O)N[C@@H](Cc2ccccc2)C(=O)O)c2c3c(c(=O)oc2c1)CCCC3,0.18,-0.19
CCn1c(C)c(C(=O)Nc2ccc(OC)cc2)c2cc(OC)ccc21,0.14,1.46
O=C(Nc1ccccc1)c1c(O)[nH]c(=S)[nH]c1=O,0.32,-0.2
Cc1nc2ccccc2c(=O)n1-c1ccc(Br)cc1[N+](=O)[O-],7.41*,0.51*
COc1cc(N2CCOCC2)ccc1/C=C1\C(=O)NC(=O)N(Cc2ccc3c(c2)OCO3)C1=O,0.99,-1.14
COC(=O)N1C(c2ccccc2)C1c1ccccc1 (centres undefined),0.23,-0.47
C=CCOC(=O)C1=C(C)OC(N)=C(C#N)[C@@]12C(=O)N(CC(N)=O)c1ccccc12,0.41,1.92
O=[N+]([O-])c1ccccc1CNCCc1c[nH]c2ccccc12,1.19,-0.48
C[C@]12CCC3C(CCC4=C/C(=N/OCC(=O)NC(CCC(=O)O)C(=O)O)CC[C@@]43C)C1CCC2O (some centres undefined),1.13,-0.05
CCC(=NCCO)c1c(O)n(C2CCCCC2)c(=O)[nH]c1=O,1.54,-0.26
O=c1[nH]c(=O)n(-c2cccc3ccccc23)c(O)c1C=NCCCn1ccnc1,0.08,1.16
CN(C)C(=O)Oc1ccc(NC(=O)N2CCOCC2)cc1,0.16,-0.17
O=P(C(Cl)Cl)(N1CCCCC1)N1CCCCC1,1.12,1.62
CCCCN1C(=O)NC(=O)/C(=C/c2cnc(SC)nc2)C1=O,0.43,-0.22

# Laid out differently: results already given
Molecule	KCNQ2 enhance	KCNQ2 enhance baseline
CN(C)C(=O)Oc1ccc(NC(=O)N2CCOCC2)cc1	0.16	-0.17
O=P(C(Cl)Cl)(N1CCCCC1)N1CCCCC1	1.12	1.62
CCCCN1C(=O)NC(=O)/C(=C/c2cnc(SC)nc2)C1=O	0.43	-0.22

# (more compounds)
SMILES,KCNQ2 enhance,KCNQ2 enhance baseline
O=C(O)Cc1cnc[nH]1,0.68,-1.52
C1CNC2NCCNC2N1 (centres undefined),3.15,1.05
NC(N)=N/N=C/c1ccc(N(c2ccccc2)c2ccccc2)cc1,2.4,1.35
CCN1CCN(S(=O)(=O)c2cnc(Cl)c(Br)c2)CC1,0.08,-0.21
O=P(N[C@@H](c1ccccc1)[C@@H]1C[C@H]1CO)(c1ccccc1)c1ccccc1,0.07,-2.37
O=C1C2CCCN2C(c2ccc(Cl)cc2)N1c1ccccn1 (centres undefined),0.31,0.04
COC(=O)C(Cc1ccc(N(CCCl)CCCl)cc1)N=Cc1ccccc1O (centres undefined),2.04,1.05
NNC(=O)CN1C(=O)CN=C(c2ccccc2)c2cc(Br)ccc21,0.03,-0.52
O=c1[nH]c(=O)n(-c2ccc(Cl)cc2)c(O)c1C=Nc1ccc(S(=O)(=O)Nc2nccs2)cc1,0.17,0.29
Cc1cccn2c(=O)c3c(nc12)N1CCCCCC1C1(C3)C(=O)N(C)C(=O)N(C)C1=O (centres undefined),1.08,0.78
CC12CN3CC(C)(CN(C1)C3c1cccs1)C2O (centres undefined),0.79,0.2
COc1nc(NCC2CCCO2)nc(N2CC3CC(C2)c2cccc(=O)n2C3)n1 (centres undefined),2.72,-0.03
Cn1c(O)c(C(=O)c2ccccc2F)c(=O)n(C)c1=O,0.49,-0.41
COc1cc(CNCCc2ccc3c(c2)OCO3)ccc1O,1.22,-0.38
COc1ccc(CCn2c(O)c(C=NCCN3CCCCC3)c(=O)[nH]c2=O)cc1OC,0.68,1.29
CCOC(=O)c1sc(/N=C/c2c(O)n(-c3cccc(C)c3)c(=O)[nH]c2=O)c(C#N)c1C,0.29,-1.18
Cc1nc2nc(SCC(=O)N3CCC4(CC3)OCCO4)nn2c(C)c1Cc1ccccc1,1.47,-0.39
COc1ccc(CCNCc2ccccc2F)cc1OC,1.92,-0.94
